UCH37 DUB inh = blocks the human deubiquitinase UCH37; Q9Y5K5; purified proteasome/UCH37, Ub-AMC cleavage fluorescence; inhibition, % (concentration not given with the values); 330,000 tested, 0.33% active;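 active means mean of two replicates above 20%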;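 further: 0% = compound-free wells with enzyme and 100% = wells lacking proteasome; stock transfer was 100 nL into about 20 µL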
Target sequence (Q9Y5K5 whole entry, looked up): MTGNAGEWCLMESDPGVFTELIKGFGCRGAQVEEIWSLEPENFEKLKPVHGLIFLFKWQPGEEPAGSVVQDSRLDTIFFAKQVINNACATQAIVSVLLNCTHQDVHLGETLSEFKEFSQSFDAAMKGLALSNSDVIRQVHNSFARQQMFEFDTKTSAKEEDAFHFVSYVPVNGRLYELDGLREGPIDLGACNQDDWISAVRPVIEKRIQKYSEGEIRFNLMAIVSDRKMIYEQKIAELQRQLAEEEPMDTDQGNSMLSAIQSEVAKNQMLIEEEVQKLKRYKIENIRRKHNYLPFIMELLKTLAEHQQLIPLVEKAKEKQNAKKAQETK
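Signal – fluorescence, ex 355 nm, em 460 nm · System – Proteasome-bound UCH37 · Input – 0.15 nM proteasome as dispensed · Timing – 30 min preincubation with enzyme, 25 min cleavage at room temperature · Read-out basis – percent inhibition of cleavage signal versus uninhibited and no-proteasome wells · Medium – Tris-HCl pH 7.4 with ATP-MgCl2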
* hit, by the source's call. These rows are one share of the data; rates above refer to the full screens.

Compound	UCH37 DUB inh
NC(=NOC(=O)CCC(=O)O)c1ncc(C(F)(F)F)cc1Cl	5.5
COc1cccc(C=NNC(=O)Cn2cnc3c2c(=O)n(C)c(=O)n3C)c1	5.5
COc1ccc(C=c2sc3n(c2=O)C(c2ccccc2OC)C2=C(N=3)c3ccccc3CC2)cc1O (stereo not given)	4.5
CC(C)(C)S(=O)(=O)C(C#N)=NNc1ccc(C#N)cc1	9.6
Cc1cc(C)nc(NN=Cc2ccccc2OCc2ccc(Cl)cc2)n1	-0.4
COc1cccc(C=NNC(=O)c2ccc(=O)[nH]n2)c1O	10
COc1ccc(C(=O)C(C#N)=NNc2cccc([N+](=O)[O-])c2)cc1	7.5
CN(c1ccc(C(=O)NN=Cc2cccc([N+](=O)[O-])c2)cc1)S(=O)(=O)c1ccccc1	6.3
O=C(O)c1ccc(NN=Cc2cccc3cccnc23)cc1	12
Cc1ccc(C=NNC(=O)c2ccoc2C)s1	6.6
COc1ccc(C=NNC(=O)C(=O)N2CCN(c3ccccc3OC)CC2)cc1	2.0
O=C(CSc1nc2sc3c(c2c(=O)n1-c1ccccc1)CCCC3)NN=Cc1ccccc1C(=O)O	-67
CC(CC(=O)Nc1cc(Cl)ccc1C)=NNC(N)=O	1.7
Cc1ccc(C=NN2CCN(Cc3ccccc3)CC2)o1	1.8
CC(Cn1cnc([N+](=O)[O-])n1)=NNC(=O)c1ccncc1	1.5
O=C(Nc1ccccc1C(=O)NN=Cc1ccc(O)cc1)c1ccccc1	3.7
CC(=NNC(=O)c1ccc(Cl)cc1)c1ccc2[nH]ccc2c1	-3.9
O=C(NN=Cc1ccc(F)cc1)c1cc(-c2ccccn2)nc2ccccc12	-2.2
CCOC(=O)C(=NO)C1=NC(C)(C)Cc2ccccc21	0.9
COCCNC(=S)NN=C(C)c1cccc(C(F)(F)F)c1	4.6
ON=Cc1cn(-c2ccccc2)nn1	4.1
Cc1ccccc1C(=O)ON=Cc1c(N2CCOCC2)n(C)c2ccccc12	-0.7
O=C(NN=Cc1ccncc1)c1cc(C2CC2)nc2ccccc12	2.2
CCOc1ccc(OCc2ccc(C(=O)NN=C(C)c3ccccn3)cc2)cc1	0.6
COc1cc(OC)c(OC)cc1C=NNC(=O)C[n+]1ccccc1	8.4
Cc1cc(C)c(S(=O)(=O)N=C2C=CC(=O)C(Cl)=C2)c(C)c1	0.4
COc1cc(C=NNC(=O)c2cc(C)n(-c3ccc(F)cc3)c2C)cc(OC)c1O	-3.6
O=C(NN=Cc1ccncc1)c1ccccc1[N+](=O)[O-]	3.3
Nc1nonc1-n1nnc(C(=O)NN=Cc2c(Cl)cccc2Cl)c1CN1CCOCC1	3.2
O=C1CS/C(=N/N=Cc2ccn[nH]2)N1	4.0
COc1cc(OC)c(OC)cc1C=NNC(=O)c1ccc(CSc2nc(C)cc(C)n2)cc1	-157
CCCC(=NNC(=O)c1ccco1)c1ccc(Cl)s1	-0.6

Taken from above:
`COc1cc(OC)c(OC)cc1C=NNC(=O)c1ccc(CSc2nc(C)cc(C)n2)cc1` | UCH37 DUB inh = -157
`COCCNC(=S)NN=C(C)c1cccc(C(F)(F)F)c1` | UCH37 DUB inh = 4.6

Additional compounds follow:
Compound	UCH37 DUB inh
CN(C)C=Nc1ncc(C(=O)c2ccccc2)s1	12
CC(=NNS(=O)(=O)c1cc(C)ccc1C)c1ccc2c(c1)OCO2	5.1
CCCCCCC(=O)NN=CCc1ccccc1	0.9
O=C(COc1ccc(C=NNC(=O)c2cc3ccccc3o2)cc1Cl)Nc1ccccc1	-499
CC(CC(=O)Nc1cccc2c1CCCC2)=NNC(=O)c1ccccc1N	-190
Nc1sc(-c2ccccc2)cc1C(=O)NN=Cc1ccc(Cl)cc1	-40
O=c1c2c3c(sc2ncn1N=Cc1ccc(Br)o1)CCCC3	0.1
O=C(NN=Cc1ccc(-c2ccccc2[N+](=O)[O-])o1)[C@H]1C[C@@H]1c1ccccc1	4.9
Cc1ccc(Cn2c(NN=Cc3ccncc3)nc3c2c(=O)n(C)c(=O)n3C)cc1	14
CCc1ccc(C=NNC(=O)c2nnn(-c3nonc3N)c2CN2CCc3ccccc32)cc1	2.2
COc1ccc(C=Nn2cnc3c([nH]c4ccc(F)cc43)c2=O)cc1CN1CCCC1	8.2
Cc1cccc(C=NN2CCN(c3ccccc3)CC2)c1	2.4
Cn1c(=O)[nH]c(=O)c2c1nc(N1CCCCC1)n2CC=NNC(=O)c1cc(Br)ccc1O	-8.4
O=C(NN=Cc1cccc2ccccc12)c1cccnc1	4.0
CC1CN(C)C(C)CC1=NOc1ccc([N+](=O)[O-])cc1 (stereo not given)	4.3
O=C(O)CC1SC(NN=Cc2ccc(Br)cc2)NC1=O (stereo not given)	11
Cn1c(C=NO)nc2ccccc21	-23
CC(=NN)c1c(-c2ccccc2)c2cc(C)ccc2[nH]c1=O	6.1
CCCCc1ccc(C(C)=NNc2cc(N3CCOCC3)nc(C)n2)cc1	0.0
CC(CC(=O)Nc1cccnc1)=NNC(=O)c1ccc([N+](=O)[O-])c(Cl)c1	1.5
O=[N+]([O-])c1ccc(NN=C2CC3CC=CC23)c([N+](=O)[O-])c1 (stereo not given)	5.0
COc1cccc2cc(S(=O)(=O)c3ccc(C)cc3)c(=NNS(=O)(=O)c3ccc(C)cc3)oc12	6.3
Cc1cc(SCC(=O)NN=Cc2ccc(O)cc2O)nc2ccccc12	3.2
Clc1cccc(Cl)c1C=NNc1c(Cl)cncc1Cl	1.7
COc1ccc(OCC(=O)NN=C2CCc3ccccc32)cc1	2.5
Cc1c(C=NNC(=O)c2cccnc2)cc(C#N)n1C	6.7
COc1ccc(NS(=O)(=O)c2cccc(C(=O)NN=Cc3cn(-c4ccccc4)nc3-c3ccccc3)c2)cc1	-31
Cc1ccc(C=NNC(=O)CSc2ccccn2)o1	2.7
CC(=NNc1nc(-c2ccccc2)cc(-c2ccc(F)cc2)n1)c1cccc(N)c1	1.9
O=C(NN=Cc1ccc(OCC2COCCO2)cc1)c1ccc(Br)cc1 (stereo not given)	2.5
N#CC(=NNc1cccc(F)c1)C(=N)N1CCCCCC1	7.5
CC(=O)Nc1ccc(S(=O)(=O)N(C)CC(=O)NN=Cc2cccs2)cc1	3.8
CC(=NNC(=O)c1c(Cl)cnn1C)c1ccc(NC(=O)c2ccncc2)cc1	-54
Cc1nn(C)cc1C=NO	-2.2
O=C(CN(CCc1ccccc1)S(=O)(=O)c1ccc(Cl)cc1)NN=Cc1ccc2c(c1)OCO2	3.0
CCN(CC)c1ccc(C=NOC(C)C(=O)Nc2ccc(C)cc2)cc1 (stereo not given)	-9.9
CC(=NN1CCN(c2ccccc2)CC1)c1cccc([N+](=O)[O-])c1	1.3
CC(=NNC(N)=O)C1CC(CC(C)C)C(=O)O1 (stereo not given)	-0.2
Cc1ccc(C=NNC(=O)c2cc(C)oc2C)o1	-2.1
COc1cc(C=NNC(=O)C23CC4CC(CC(C4)C2)C3)cc(Br)c1O	-42
CN=c1scc(-c2ccccc2F)n1N=C(C)c1cccnc1	7.2
O=S1(=O)N=C(N(CCO)N=Cc2ccccc2F)c2ccccc21	6.0
CC(=O)Nc1ccc(C=NNC(=S)NC(C)C)cc1	15
Cc1ccc(C=Nn2c(-c3ccc(Cl)cc3)n[nH]c2=S)o1	2.8
Cc1[nH]n(-c2ccccc2)c(=O)c1C=NN(c1ccccc1)c1ccccc1	1.6
Cc1cc(C)nc(N=C(NC(=O)Nc2ccc(Cl)c(Cl)c2)Nc2ccccc2)n1	3.4
CC(=NNC(=O)c1cc(-c2cccc([N+](=O)[O-])c2)n[nH]1)c1ccc(F)cc1	2.9
CCOC(=O)C1=C(C)N=c2sc(=Cc3ccco3)c(=O)n2C1c1cccc(OC)c1 (stereo not given)	0.6
CSc1ccc(C=NNC(=O)C[n+]2ccccc2)cc1	6.5
CN1/C(=C\C=NNC(=O)c2ccccc2Br)C(C)(C)c2ccccc21	-1.2
COCc1cc(C)nc(OCC(=O)NN=Cc2cc(C)n(-c3c(C)cccc3C)c2C)c1C#N	1.2
O=C(NN=Cc1ccco1)c1cc(-c2ccccc2)n[nH]1	4.0
CC(=NNC(=O)CNC(=O)C1COc2ccccc2O1)c1ccco1 (stereo not given)	1.2
O=[N+]([O-])c1cccc(S(=O)(=O)NN=Cc2ccc3c(c2)OCO3)c1	5.4
C1=CCC(C=Nn2cnnc2)CC1 (stereo not given)	1.7
NC(=S)NN=Cc1ccc(OC(=O)c2cccnc2)cc1	4.1

Random excerpt: seven compounds from above.
Compound	UCH37 DUB inh
CC(=NNC(=O)CNC(=O)C1COc2ccccc2O1)c1ccco1 (stereo not given)	1.2
O=C(NN=Cc1ccco1)c1cc(-c2ccccc2)n[nH]1	4.0
C1=CCC(C=Nn2cnnc2)CC1 (stereo not given)	1.7
CSc1ccc(C=NNC(=O)C[n+]2ccccc2)cc1	6.5
NC(=S)NN=Cc1ccc(OC(=O)c2cccnc2)cc1	4.1
O=[N+]([O-])c1cccc(S(=O)(=O)NN=Cc2ccc3c(c2)OCO3)c1	5.4
CN1/C(=C\C=NNC(=O)c2ccccc2Br)C(C)(C)c2ccccc21	-1.2

(continued)
Compound	UCH37 DUB inh
O=C(NN=Cc1ccc(Sc2ccccn2)o1)c1cc2ccccc2cc1O	2.7
O=C(NN=Cc1ccccc1)c1ccco1	2.1
CCC(CC(=O)C(F)(F)F)=NNC(=O)/C(C#N)=C/N(C)C	0.8
O=C(NN=C/C=C/c1ccco1)C(O)c1ccccc1 (stereo not given)	11
CCC(=NNC(=O)OC)c1ccc(OC(F)F)cc1	2.8
CCOc1cc(C=NNC(=O)c2cc3c(ccc4ccccc43)o2)ccc1O	-31
CC(=NNC(=O)c1ccco1)c1cc2ccccc2o1	7.9
CCn1nc(C)c(C=NNC(=O)CSc2ccccn2)c1C	7.9
COc1ccc(NS(=O)(=O)c2cccc(C(=O)NN=Cc3ccccn3)c2)cc1	2.3
CC(=NNc1nc(N2CCCCCC2)nc(N2CCCCCC2)n1)c1ccccc1	0.4
CC(/C=C/c1ccccc1)=NNC(=O)CCC(=O)Nc1ccccc1C	3.3
Cc1ccc(C=NN2CCN(Cc3ccccc3)CC2)cc1	1.1
O=C(NN=Cc1ccccn1)c1cc(Br)ccc1O	5.7
CC(CC(=O)Nc1ccc(Cl)c(C(F)(F)F)c1)=NNC(=O)c1cc2ccccc2cc1O	-19
CC(=NNC(=O)CNc1ccc(F)cc1)c1cc2ccccc2o1	6.5
COc1ccc(C=NNS(C)(=O)=O)c(OC)c1	2.7
O=C(NN=Cc1ccc(OC(=O)c2cccs2)cc1)c1ccc(F)cc1	5.9
CCn1cc(C=NNC(=O)c2c[nH]c3ccccc23)c(C)n1	-0.2
O=C(NN=C1CCCc2ccccc21)c1ccc([N+](=O)[O-])cc1Cl	1.8
O=C(O)c1ccc(NN=Cc2c(F)cccc2Cl)cc1	16
Cc1cc(C(=O)NN=Cc2cccc3ccccc23)c(C)o1	2.0
O=C(NN=Cc1ccco1)c1cc2ccccc2o1	9.1
O=c1c2ccccc2ncn1N=Cc1ccccc1	2.4
S=c1[nH]nc(-c2cccnc2)n1N=Cc1cccs1	3.4
COc1cc(C(=O)NN=Cc2ccc(OC(=O)N3CCOCC3)cc2)cc(OC)c1OC	6.5
CCOC(=O)C(=NNc1ccccc1Cl)N1CCN(Cc2ccccc2)CC1	2.5
COc1ccc(NCC(=O)NN=CC2CCCCC2)cc1	0.9
CCN(CC)S(=O)(=O)c1cccc(C(=O)NN=C2CCCC(=O)C2)c1	7.3
O=C(CNC(=O)c1cccs1)NN=Cc1ccc(O)cc1O	-1.7
O=C(CSCc1ccc(Cl)cc1)NN=Cc1ccc(OCC(=O)Nc2ccccc2)cc1	-1.8
COc1cccc(C=NNC(=O)c2cc3cc([N+](=O)[O-])ccc3s2)c1O	24*
C=CCn1c(=C(C#N)c2nnc3n2CCCCC3)sc(=Cc2ccc(F)cc2)c1=O	10.0
COc1cc(C=NNC(=O)c2ccccn2)ccc1OC(=O)c1ccc(Br)cc1	-1.3
C(=NN1CCN(Cc2ccccc2)CC1)c1cccs1	1.4
Fc1ccccc1C=Nn1c(-c2cccnc2)n[nH]c1=S	5.3
O=C(Cn1nc2n(c1=O)-c1ccccc1SC2)NN=Cc1ccncc1	7.0
CCOc1ccc(C=NNC(=O)NC23CC4CC(CC(C4)C2)C3)cc1O	-1.2
COc1ccc(NC(=O)CC(C)=NNC(=O)C2CCCCC2)c([N+](=O)[O-])c1	4.2
NC(=S)NN=Cc1ccc(-c2cc(Cl)ccc2Cl)o1	-3.8
CCOc1ccccc1C=NNC(=O)c1ccc(Cn2cc([N+](=O)[O-])cn2)o1	4.0
Cc1cc(C(=O)NN=Cc2ccc3c(c2)OCO3)c(C)o1	3.0
Cc1cc(C)nc(SCC(=O)NN=Cc2sccc2C)n1	3.1
Cc1nc(CC(=O)NN=Cc2ccc(OCC(=O)O)cc2)cs1	3.5
COc1cc(OC)nc(NN=C(c2ccccc2)c2ccncc2)n1	3.4
Oc1ccc(C=NNc2nncc(-c3ccccc3)n2)cc1	5.1
CON=Cc1ccc(Sc2ccccc2)c([N+](=O)[O-])c1	2.6
CC12CCC(C(=O)Nc3ccccc3)(CC1=NO)C2(C)C (stereo not given)	1.0
Cc1ccc(NC(=S)N=C(N)Nc2nc(C)c3cc(C)ccc3n2)c(C)c1	2.5

Screening data: PubChem, ICCB-Longwood Screening Facility, Harvard Medical School
